miR-21 FLuc: miR-21 reporter, rising signal. Potency, µM (doses to about 38.3 µM), inactives show at the top dose reporter change, positive = more light. 340,000 tested, under 10 active. HeLa miR-21 FLuc reporter, luciferase, 48 h; active = well fitted rising curve with a large enough effect; inconclusive = small, poorly fitted or top-dose-only effect; inactive = no such curve, though single readings can be large or run the other way;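 note: % of control where 0% means no effect; miR-21 action dims this reporter so a rising signal means less miR-21 action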
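HeLa cells endogenously expressing miR-21, stably carrying CMV-driven firefly luciferase with a downstream miR-21 binding site, 2000 cells/well. Titrations up to approximately 40 uM, 48 hours; luciferase luminescence read.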
* marks the source's active call; other numbers are inactive results; ? = inconclusive. Not all compounds are listed. The share of hits here may be higher or lower than overall.

miR-21 FLuc	canonical_smiles
1%	CCc1ccccc1NC(=O)Cn1ccn(-c2cc(C)cc(C)c2)c(=O)c1=O
-55%	Cc1c(-c2nsc(NC(=O)c3cccs3)n2)nnn1-c1ccc(Br)cc1
-57%	CCc1ccc2oc(-c3ccc(C)c(NC(=O)c4ccc(C#N)cc4F)c3)nc2c1
28%	CCOC(=O)COc1ccc(CC)cc1C(=O)c1ccn2nc(-c3ccc(C)cc3)cc2n1
-9%	Cc1ccc(S(=O)(=O)C(CNC(=O)C(=O)NCCc2ccccc2)c2cccs2)cc1 (stereo unspecified)
9%	COc1cc(C2N=C(N)Nc3nc4ccccc4n32)ccc1OCCC(C)C (stereo unspecified)
0%	CCc1ccc(NC(=O)CN2CCN(C3CCCCC3)C(=O)C2=O)cc1
-14%	O=C(Cc1ccccc1)Nc1sc2c(c1C(=O)Nc1ccccc1)CCCCC2
-41%	COc1cc2ccccc2cc1C(=O)Nc1ccc2oc(-c3ccc(F)cc3)nc2c1
-1%	COc1ccc(NC(=O)CCCc2nnc3n(CCC(C)C)c(=O)c4sccc4n23)cc1Cl
-9%	CCCn1c(=O)c2c(nc3n2CCN3c2ccc(C)cc2)n(C)c1=O
-43%	COc1cc(-c2nc3nc[nH]n3c2Nc2ccc(C(C)C)cc2)ccc1O
-8%	Cc1ccc(-c2nc(N3CCCC(C)C3)c3ccccc3n2)cc1 (stereo unspecified)
14%	O=C(NCCc1ccc(Cl)cc1)c1cccn1-c1nnc(N2CCCC2)s1
0%	O=C1CC(c2nc(-c3ccc(Cl)cc3)no2)CN1c1ccc2c(c1)OCCO2 (stereo unspecified)
18%	O=C(Nc1cccc(Br)c1)Nc1nc2c(s1)CCCCCC2
-2%	CC1CCN(S(=O)(=O)c2ccc3nc(-c4cccnc4)cc(C(=O)NCCCOC(C)C)c3c2)CC1
-15%	N#Cc1ccccc1NC(=O)c1cc2c(=O)n3ccccc3nc2s1
-5%	COc1ccc(OCC(=O)NC2CC(=O)N(c3ccc4c(c3)OCCO4)C2)cc1 (stereo unspecified)
?	COc1cc(NS(=O)(=O)c2ccc(-c3cc(C)no3)cc2)cc(OC)c1
-3%	Cc1ccc(NC(=O)CN(C)S(=O)(=O)c2ccc3c(c2)n(C)c(=O)c(=O)n3C)cc1C
-14%	Cc1cccc(-c2noc(-c3ccc(N4CCN(C)CC4)c([N+](=O)[O-])c3)n2)c1
-2%	COCCNC(=O)c1c(NC(=O)Cc2coc3cc(C)ccc23)sc2c1CCCC2
-3%	Cc1cccc(CCNC(=O)Cn2ncc3c(=O)oc4ccccc4c32)c1
-30%	COc1ccc(CNC(=O)Cc2csc3ccccc23)cc1OC

Not a retest: 7 of the compounds above.
miR-21 FLuc	canonical_smiles
-43%	COc1cc(-c2nc3nc[nH]n3c2Nc2ccc(C(C)C)cc2)ccc1O
-8%	Cc1ccc(-c2nc(N3CCCC(C)C3)c3ccccc3n2)cc1 (stereo unspecified)
14%	O=C(NCCc1ccc(Cl)cc1)c1cccn1-c1nnc(N2CCCC2)s1
0%	O=C1CC(c2nc(-c3ccc(Cl)cc3)no2)CN1c1ccc2c(c1)OCCO2 (stereo unspecified)
18%	O=C(Nc1cccc(Br)c1)Nc1nc2c(s1)CCCCCC2
-2%	CC1CCN(S(=O)(=O)c2ccc3nc(-c4cccnc4)cc(C(=O)NCCCOC(C)C)c3c2)CC1
-15%	N#Cc1ccccc1NC(=O)c1cc2c(=O)n3ccccc3nc2s1

(list continues)
miR-21 FLuc	canonical_smiles
-7%	Cc1ccc(CN2C(=O)CN(C3CCCCCC3)C(=O)C2c2ccc(F)cc2)cc1 (stereo unspecified)
0%	COc1ccc(NC(=O)CCS(=O)(=O)c2cc(Br)cc3c2N(C(C)=O)CC3)c(OC)c1
2%	COc1ccccc1CNC(=O)CSc1ncc2c(n1)-c1ccccc1N(Cc1ccc(C)cc1)S2(=O)=O
-1%	CCOC(=O)C1CCN(C(=O)Cn2ncc3c4ccccc4n(Cc4ccccc4F)c3c2=O)CC1
3%	COC(=O)c1cccc(Nc2c(-c3ccc(O)c(OC)c3)nc3nc[nH]n23)c1
-1%	COc1cccc(CNC(=O)Cn2nc3c(cc2=O)CCCC3)c1OC
5%	CCOc1ccc(-n2c(Cc3ccccc3)nnc2SCc2nc(-c3ccccc3OC)no2)cc1
14%	CCC1=C(c2ccc(C)cc2)S(=O)(=O)N=C1N1CCC(C(=O)Nc2ccccc2F)CC1
6%	CCOc1ccc(C2C(C(N)=O)=C(C)Nc3nc(SCc4ccccc4F)nn32)cc1 (stereo unspecified)
-8%	COc1ccc(CNC(=O)CN(c2ccc(C)cc2)S(=O)(=O)c2c(C)n[nH]c2C)cc1
-2%	Cc1ccc2c(c1)-c1nc(-c3ccc4c(c3)NC(=O)CO4)cc(-c3ccc(Cl)cc3)c1CO2
-1%	COc1ccc(NC(=O)c2oc3ccccc3c2NC(=O)COc2ccc(C(C)C)cc2)c(OC)c1
-67%	N#Cc1ccccc1CSc1nnc(-c2ccc(Br)cc2)o1
3%	COc1ccc(C(=O)CC2(O)C(=O)Nc3c(C)cccc32)c(OC)c1OC (stereo unspecified)
17%	Cc1oc(-c2ccc(C(=O)NCc3ccc(F)cc3)cc2)nc1CS(=O)c1ccccc1 (stereo unspecified)
-12%	COc1cccc(C2c3c(oc4ccc(C)cc4c3=O)C(=O)N2CCCN2CCOCC2)c1OC (stereo unspecified)
1%	CN1CCN(C(=O)c2cnn(-c3cccc(F)c3)c2C2CCN(C(=O)OC(C)(C)C)CC2)CC1
3%	COc1cc(NC(=O)C(Cc2ccccc2)NS(=O)(=O)c2cccc3nsnc23)cc(OC)c1 (stereo unspecified)
2%	Cc1ccc(CN2CCN(C3CCN(C(=O)c4ccccc4)CC3)C(=O)C2=O)cc1
0%	CCN(Cc1ccccc1)S(=O)(=O)c1ccc(F)c(C(=O)Nc2ccc(C(C)C)cc2)c1
1%	CCOC(=O)c1ccc(NC(=O)CN(Cc2ccc(C)cc2)S(=O)(=O)c2ccc(C)cc2)cc1
-1%	Cc1cccc(NC(=O)c2ccc(C(=O)Nc3cccc(C)c3C)cc2)c1C
0%	Cc1ccc(-n2cc(C(=O)OCc3ccc(Cl)cc3)c3ccccc3c2=O)cc1
?	O=C(CSc1nc2c([nH]c3ccccc32)c(=O)n1-c1ccccc1)Nc1ccc(Cl)c(Cl)c1
13%	CCOc1ccccc1NS(=O)(=O)c1ccc2[nH]c3c(c2c1)CCCCC3
9%	N#Cc1nc(-c2ccc(COc3ccc(Cl)cc3)o2)oc1N1CCN(c2ccccc2)CC1
-1%	CCN1CCSc2ccc(C(=O)NCc3ccc(OC)cc3)cc21
19%	CCN1CCN(CCCNC(=O)Cn2c(-c3cccs3)cc3cc(F)ccc32)CC1
-11%	CC(C)CCNc1nc2c(S(=O)(=O)c3ccc(Br)cc3)nnn2c2ccsc12
5%	Cc1ccc(OCCn2nnc3sc4c(c3c2=O)CCC(C(C)(C)C)C4)cc1 (stereo unspecified)
-6%	O=C(Nc1ccc2oc(-c3cccnc3)nc2c1)c1ccc(-c2ccc(Cl)cc2)o1
1%	COc1ccc(-n2c(SCc3ccccc3F)nc3c([nH]c4ccccc43)c2=O)cc1
-16%	COc1ccc(CNC(=O)c2sc3nc[nH]c(=O)c3c2C)cc1
2%	CCn1c(C)c(C)c2cc(C(=O)NCCc3ccc(C)cc3)ccc21
-18%	CCc1ccc2occ(CC(=O)Nc3nnc(SC)s3)c2c1
24%	CC1=C(C(=O)Nc2cccnc2)C(c2ccc(Cl)cc2)n2nc(-c3ccccc3)nc2N1 (stereo unspecified)
-2%	CCNC(=O)c1c(NC(=O)Cc2coc3ccc(CC)cc23)sc2c1CCCC2
-2%	Cc1ccc2c(=O)cc(C(=O)Nc3sc4c(c3C(=O)NCc3ccccc3)CCCC4)oc2c1C
-4%	O=C(NCc1ccc(Cl)cc1)C1CCCN(c2ncnc3onc(-c4ccc(F)cc4)c23)C1 (stereo unspecified)
15%	O=C(Nc1ccc(Cl)cc1)C1CCCN(S(=O)(=O)c2ccc3[nH]c(=O)ccc3c2)C1 (stereo unspecified)
-41%	COc1ccc2nc(N3CCN(C(=O)c4ccco4)CC3)sc2c1
?	CCCOC(=O)c1cccc(Nc2nc(CCC)cc(=O)[nH]2)c1
1%	Cc1cccc(NC(=O)CCCn2nc(C)c3c(C)n(-c4ccccc4)nc3c2=O)c1C
?	CCC1CN(C(=O)Nc2cc(C)cc(C)c2)c2ccccc2O1 (stereo unspecified)
-11%	CC(=O)c1ccc(NC(=O)c2sc(-n3nc(C)c(CCC(C)C)c3C)nc2C)cc1
4%	COc1ccc(CNC(=O)c2cc(Nc3ccc(OC)cc3OC)nc3ccccc23)cc1
1%	COc1ccc(Cl)c2sc(NC(=O)c3ccc(S(=O)(=O)N4CCOCC4)cc3)nc12
-48%	COc1cccc(NC(=O)C(=O)NCC(c2ccc3c(c2)OCO3)N2CCOCC2)c1 (stereo unspecified)
1%	CC(C)CN(CC(C)C)c1nc(-c2ccc(Cl)cc2)nc2ccccc12
4%	O=S(=O)(c1ccc(Cl)cc1)c1nc(-c2ccccc2)oc1N1CCN(c2ccccc2)CC1

Next part:
miR-21 FLuc	canonical_smiles
8%	CCOc1cc(C2CC(=O)Nc3cc4c(cc32)OCCO4)ccc1O (stereo unspecified)
?	COc1ccc(C(C)C)cc1S(=O)(=O)NCCc1c(C)[nH]c2ccc(C)cc12
-12%	COc1cccc(NC(=O)c2cnc(SCC(=O)N3CCCc4ccccc43)n(C)c2=O)c1
0%	O=C(Cn1c2ncccc2c(=O)n1-c1ccccc1)Nc1ccc(Cl)cc1C(F)(F)F
2%	CCN(C(=O)CCS(=O)(=O)c1cc2[nH]c(=O)c(=O)[nH]c2cc1C)c1ccccc1
-3%	CCOc1ccc(N2CC(c3nc(-c4cc(OC)c(OC)c(OC)c4)no3)CC2=O)cc1 (stereo unspecified)
2%	CCOC(=O)c1ccccc1NC(=O)N1CCC(CN2CCOCC2)CC1
-2%	CCc1ccc(NC(=O)Cn2nnc(C(=O)NCCc3ccccc3)c2N)cc1
0%	COc1cccc(C(=O)Nc2ccccc2-c2nc(-c3ccc(C)cc3)no2)c1
-4%	Cc1ccc(C)c(N(C)C(=O)CCNC(=O)Cn2cnc3ccccc3c2=O)c1
2%	Cc1ccc(N2CCN(c3ncnc4onc(-c5ccc(F)cc5)c34)CC2)c(C)c1
9%	COc1ccc(OC)c(NC(=O)CSc2nc3ccccc3nc2N2CCCCC2)c1
-8%	COc1cccc(NC(=O)C(=O)NCCc2csc3nc(-c4ccccc4C)nn23)c1
-4%	CCOc1ccc(-n2c(=O)c3c4c(sc3n(Cc3cc(=O)n5cc(Cl)ccc5n3)c2=O)CCC4)cc1
7%	Cc1cc(=O)n(CC(=O)Nc2ccc([N+](=O)[O-])cc2)c(-n2nc(C)cc2C)n1
-3%	CCOC(=O)c1c(C)sc(-c2c(-c3cc(C)ccc3C)[nH]c3c2c(=O)[nH]c(=O)n3C)c1O
0%	Cc1ccc(C(=O)CSc2nc3cc(C(=O)NC4CCCC4)ccc3c(=O)n2CC2CCCO2)cc1 (stereo unspecified)
-3%	COc1ccc(N2CCN(C(CNC(=O)CC(C)C)c3ccc4c(c3)OCO4)CC2)cc1 (stereo unspecified)
-1%	CCOc1ccc(-n2c(-c3ccc(C)cc3)nc3c(cnn3-c3ccccc3)c2=O)cc1
-2%	Cc1cc(C)cc(NC(=O)N2CCC(N3CCCCC3)CC2)c1
-34%	Cc1ccc(CN2CCSc3ccc(C(=O)Nc4ccc(Cl)cc4)cc32)cc1
8%	Cn1cc(S(=O)(=O)c2cccc(Cl)c2)c(=O)c2cc(F)c(N3CCN(c4ccc(F)cc4)CC3)cc21
-8%	O=C(Nc1ccc(-c2nc3ccccc3s2)c(O)c1)c1ccc(Br)cc1
10%	COc1cccc(CNC(=O)C2CCCN(c3nn4cc(-c5ccc(C)cc5)nc4s3)C2)c1 (stereo unspecified)
18%	Cc1cc(Cl)ccc1NC(=O)c1cccc(NC(=O)N2CCSc3ncccc32)c1

3 compounds already listed, arranged by SMILES length, ascending.
miR-21 FLuc	canonical_smiles
9%	COc1ccc(OC)c(NC(=O)CSc2nc3ccccc3nc2N2CCCCC2)c1
0%	O=C(Cn1c2ncccc2c(=O)n1-c1ccccc1)Nc1ccc(Cl)cc1C(F)(F)F
-3%	CCOC(=O)c1c(C)sc(-c2c(-c3cc(C)ccc3C)[nH]c3c2c(=O)[nH]c(=O)n3C)c1O

(continued)
miR-21 FLuc	canonical_smiles
-8%	CCOc1ccc(C2c3c(oc4ccccc4c3=O)C(=O)N2c2nnc(C)s2)cc1OC (stereo unspecified)
-1%	Cc1cc(NC(=O)CSc2nc(-c3cccc(F)c3)nc3c2c(=O)n(C)c(=O)n3C)no1
4%	COc1ccc(-n2c(C)nc3cc(C(=O)NC4CCCC4)ccc32)cc1
26%	Cc1nc2c(C(=O)NCc3ccccc3)c[nH]n2c(=O)c1Cc1ccccc1Cl
-5%	CCCc1nc2ccccc2n2c(-c3ccccc3)c3c(=O)n(C)c(=O)n(C)c3c12
3%	CCc1ccccc1N(C)C(=O)Cc1c(C(=O)O)c(C)cn1C
1%	O=c1nc2sc3ccccc3n2c(=O)n1-c1ccc(Cl)c(Cl)c1
1%	COc1cccc(-n2cc(C(=O)Oc3ccc(F)cc3)c3ccccc3c2=O)c1
-5%	CCCOc1ccc(CNC(=O)c2ccc3c(c2)N(Cc2ccccc2)CCS3)cc1
-2%	COc1cccc(-n2c(=O)c3sc4ccccc4c3n(Cc3c(F)cccc3Cl)c2=O)c1

Sorted by the number under miR-21 FLuc (rising): some entries from above
miR-21 FLuc	canonical_smiles
-5%	CCCc1nc2ccccc2n2c(-c3ccccc3)c3c(=O)n(C)c(=O)n(C)c3c12
-1%	Cc1cc(NC(=O)CSc2nc(-c3cccc(F)c3)nc3c2c(=O)n(C)c(=O)n3C)no1
4%	COc1ccc(-n2c(C)nc3cc(C(=O)NC4CCCC4)ccc32)cc1
